High-throughput results from PubChem.
HNF4A DNA FP = change in binding of human HNF4 alpha to DNA | P41235 | hit rate 0.3% among 360,000 | HNF4a-FITC DNA binding, fluorescence polarization, 1 h | activity change, % at 10 µM; in the data active = activity change above about 30%, passing the limit was not always enough;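 note: controls were the assay level and a saturating level of protein; the project sought stronger binding though the title names inhibitors; some compounds called inactive have numbers as strong as hits; positive values seem to mean higher polarization but the record does not say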
Target sequence (P41235 whole entry, looked up): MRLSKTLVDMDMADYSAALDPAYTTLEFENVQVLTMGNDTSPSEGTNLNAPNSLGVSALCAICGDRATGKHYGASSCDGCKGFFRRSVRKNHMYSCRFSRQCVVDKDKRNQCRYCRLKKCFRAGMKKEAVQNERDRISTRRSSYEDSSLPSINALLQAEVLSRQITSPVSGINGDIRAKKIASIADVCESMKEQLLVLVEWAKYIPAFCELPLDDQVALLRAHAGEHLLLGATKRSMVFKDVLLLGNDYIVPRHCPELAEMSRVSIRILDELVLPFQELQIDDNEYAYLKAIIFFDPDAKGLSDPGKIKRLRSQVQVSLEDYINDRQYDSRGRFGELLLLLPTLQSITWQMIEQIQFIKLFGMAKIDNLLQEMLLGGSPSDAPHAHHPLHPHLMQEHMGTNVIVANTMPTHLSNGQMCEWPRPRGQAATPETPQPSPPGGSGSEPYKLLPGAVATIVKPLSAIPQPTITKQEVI
E coli growth = blocks Escherichia coli growth; hit rate 0.21% among 330,000; OD600, 23 h; hits give low values; OD600 absorbance (no concentration beside the values); AID 1053175;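 active = OD600 absorbance below the run mean of sample wells minus 3.6 SD, in any replicate, cut at about 0.56 in these data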;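 note: stock transfer was 300 nL into about 60 µL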
B2AR ag = agonists of human beta-2 adrenergic receptor inducing internalization; Am2.2-beta2AR cells, FAP receptor internalization, flow cytometry; reference of the scale not given here; AID 504454; hit rate 0.43% among 340,000; response, % (no concentration beside the values); P07550;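 active = response above a set limit, near 3 SD of response in nonfluorescent compounds, cut at about 42% in these data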;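 note: stock transfer was 100 nL into about 11 µL; a reference agonist was the positive control; negative values mostly stem from fluorescent compounds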
Target sequence (P07550 whole entry, looked up): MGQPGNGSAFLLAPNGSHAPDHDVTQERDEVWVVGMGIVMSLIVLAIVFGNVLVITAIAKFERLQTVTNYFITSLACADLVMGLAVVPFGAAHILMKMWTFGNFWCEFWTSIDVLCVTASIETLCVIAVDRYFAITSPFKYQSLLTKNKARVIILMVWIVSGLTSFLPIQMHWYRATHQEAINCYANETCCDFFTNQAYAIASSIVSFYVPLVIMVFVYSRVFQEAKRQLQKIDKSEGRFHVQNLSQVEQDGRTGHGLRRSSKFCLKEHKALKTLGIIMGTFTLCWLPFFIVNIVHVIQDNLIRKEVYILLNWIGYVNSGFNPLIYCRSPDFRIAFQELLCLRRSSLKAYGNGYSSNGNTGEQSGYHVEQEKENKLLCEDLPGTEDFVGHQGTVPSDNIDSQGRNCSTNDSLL
LANA-H2B inh = blocks KSHV LANA binding to histone H2A/H2B; inhibition, % (concentration not given with the values); Q9QR71; cell-free LANA-H2A/H2B peptide, fluorescence polarization; AID 2629; hit rate 0.6% among 320,000; in the data active = inhibition mostly above about 10%, no sharp cut-off; inactive = mostly below about 6.7%;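 note: stock transfer was 7.5 nL into about 10 µL; 0% = median of vehicle wells and 100% = median of positive control wells; one replicate is shown; the record names a cut of 25% in any replicate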
UCH37 inh = inhibitors of human deubiquitinating enzyme UCH37; Q9Y5K5; purified proteasome/UCH37, Ub-AMC cleavage fluorescence; inhibition, % (no concentration beside the values); hit rate 0.33% among 330,000; AID 588478;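 active = mean of two replicates above 20%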;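 note: 0% = compound-free wells with enzyme and 100% = wells lacking proteasome; stock transfer was 100 nL into about 20 µL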
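Material: Human UCH37 enzyme supplied as purified proteasome complex | Schedule: 30 min compound-proteasome preincubation then 25 min substrate reaction, room temperature | Detection: AMC fluorescence from Ub-AMC cleavage, excitation 355 nm, emission 460 nm | Benchmarks: Wells without proteasome as full block, compound-free enzyme plus substrate as uninhibited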
FGF22 binding = binders of recombinant human FGF22 by thermal shift; hit rate 1.5% among 340,000; Q9HCT0; SYPRO orange fluorescence; percent of sucrose octasulfate shift, DMSO zero; calls only at 9.99 µM; AID 651658;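 active = melting point raised past a set limit in the mean and every replicate; three in four hits are not shown here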
ALR H2O2 inh = inhibitors of human sulfhydryl oxidase ALR; inhibition, % (test concentration not listed); purified ALR, DTT oxidation, H2O2 HRP-luminol luminescence; hit rate 3.8% among 290,000; P55789;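 active = mean and each replicate at 75% or more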;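 note: stock transfer was 7.5 nL into about 7.5 µL; 0% = neutral wells and 100% = wells with inactivated enzyme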
Target sequence (P55789 whole entry, looked up): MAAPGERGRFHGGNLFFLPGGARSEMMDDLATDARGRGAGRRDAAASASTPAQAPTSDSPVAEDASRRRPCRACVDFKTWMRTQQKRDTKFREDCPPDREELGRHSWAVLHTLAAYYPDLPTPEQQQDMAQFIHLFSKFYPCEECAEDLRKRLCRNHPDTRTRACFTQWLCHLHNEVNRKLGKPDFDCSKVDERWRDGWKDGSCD
Starred values were filed as active, the others as inactive; i = inactive; . = no result given. Only part of the results is shown. The share of hits here may be higher or lower than overall.

FGF22 binding | smiles | E coli growth | HNF4A DNA FP | LANA-H2B inh | B2AR ag | ALR H2O2 inh | UCH37 inh
i | O=C(CSc1ccc2nnc(-c3cccnc3)n2n1)NCc1ccc2c(c1)OCO2 | 0.77 | 0.4 | 0.2 | -10 | -9 | 5.4
i | Cc1ccc(NC(=O)NC2OC(=O)c3ccccc32)cc1 (stereo unspecified) | 0.71 | -0.6 | . | 4 | . | 1.3
i | COc1ccc(CCNCC(=O)Nc2ccccc2C(F)(F)F)cc1 | 0.7 | 2.2 | -3.9 | 0 | 0 | 2.3
i | CC(=O)Nc1ccc(NC(=O)Cc2ccc(-c3ccccc3)cc2)cc1 | 0.73 | 7.3 | 4.2 | -1 | -9 | 2.9
i | CN(C)c1ccc(C=Cc2cnccn2)cc1 | 0.69 | 16 | . | 10 | . | -2.3
i | O=C(NCc1ccc(F)cc1)C1CCCN(C(=O)Nc2ccc(F)cc2)C1 (stereo unspecified) | 0.66 | 1.7 | -0.4 | -2 | -3 | 1.2
i | CCOC(=O)N1CCC(Nc2c(NCCCN(CC)c3cccc(C)c3)c(=O)c2=O)CC1 | 0.73 | -3.0 | -4.1 | 0 | 99* | 6.9
. | CCOC(=O)c1c(NC(=O)Cc2cccs2)sc(C(=O)NC2CCCCC2)c1C | 0.74 | 1.3 | 6.4 | 8 | -6 | 4.0
i | O=C(CSc1nc2c(cnn2-c2ccc(F)cc2)c(=O)[nH]1)N1CCCCC1 | 0.75 | 2.5 | -3.2 | 5 | . | 2.8
i | O=C(NCCCN1CCCC1)c1ccc2c(c1)N(Cc1ccccc1F)C(=O)c1ccccc1S2=O (stereo unspecified) | 0.69 | 1.8 | -0.4 | 2 | -10 | 3.0
. | Cc1ccccc1C(=O)NNC(=O)CCCCC(=O)NNC(=O)c1ccccc1C | 0.69 | 2.1 | -2.3 | 1 | -6 | 3.9
i | CCOc1ccc(CCNS(=O)(=O)c2c(C)nc3scc(C)n3c2=O)cc1OCC | 0.68 | 0.4 | -6.7 | 6 | 72 | 8.1
i | COc1ccccc1CNCc1cc(OC)c(OC)c(OC)c1 | 0.67 | 4.7 | 2.3 | 7 | -10 | 2.2
. | O=C(Nc1nnc(SCC(=O)N2CCCCC2)s1)c1cccs1 | 0.67 | -1.6 | -1.1 | -22 | . | 10
. | COC(=O)[C@H](Cc1ccccc1)NC(=O)NCCc1ccc(S(N)(=O)=O)cc1 | 0.73 | -3.1 | 2.7 | -2 | -1 | 1.9
i | CCc1ccccc1Nc1nc2ccccc2[nH]1 | 0.65 | 0.2 | -0.7 | -8 | . | 6.0
i | Cc1nnc(SCc2cccc3ccccc23)s1 | 0.67 | 3.2 | 2.9 | 0 | -10 | 5.7
. | Cc1cc(S(=O)(=O)NC2CCCCC2)c(C)s1 | 0.66 | -1.9 | 2.7 | -14 | -4 | 1.9
. | Cc1cccc(N(C)C(=O)c2coc(=O)c3ccccc23)c1 | 0.69 | 1.4 | -4.2 | 10 | -5 | 1.7
i | O=C(Nc1ccc(O)c2c(=O)cc(-c3ccccc3Cl)oc12)c1ccc(Cl)c(Cl)c1 | 0.67 | -2.6 | 5.2 | 4 | -6 | -0.4
. | C/C(=N\NC(=O)c1ccco1)c1ccc(NC(=O)c2ccccc2)cc1 | . | 1.8 | -2.0 | 7 | -2 | .
. | Cn1c(=O)n(CC(N)=O)c2ccccc21 | 0.75 | 0.9 | 0.1 | -1 | -13 | -3.4
i | CC(=O)c1cccc(NC(=O)CSc2nnnn2C2CCCC2)c1 | 0.68 | -2.0 | . | -8 | . | 6.1
i | COC(=O)c1cc2c(cc1Cl)N1CCCCCC1=NS2(=O)=O | 0.72 | -3.9 | -5.7 | 1 | -3 | 3.7
. | CC1=NN(C(=O)c2ccccc2Br)C(O)(c2cccnc2)C1 (stereo unspecified) | 0.67 | 6.2 | -0.5 | 2 | -3 | 2.8

New compounds follow.
FGF22 binding | smiles | E coli growth | HNF4A DNA FP | LANA-H2B inh | B2AR ag | ALR H2O2 inh | UCH37 inh
i | Cc1c(C)n(C)c2ccc(C(=O)NCc3cccs3)cc12 | 0.71 | 4.5 | -13 | -4 | . | 0.0
i | COc1ccc(NC(=O)Nc2ccon2)c(OC)c1 | 0.68 | -0.1 | 1.3 | -4 | -5 | 2.7
i | Cc1ccc(NC(=O)c2ccc(Cl)c(S(=O)(=O)N3CCCCCC3)c2)nc1 | 0.69 | -1.4 | 5.9 | 8 | -28 | 3.4
. | O=C(CCC(=O)N1CCN(S(=O)(=O)c2ccc(Cl)cc2)CC1)Nc1ccc2ccccc2c1 | 0.7 | 1.4 | -3.6 | -1 | -6 | 5.1
i | Cc1cccc(-n2ccnc2SCC(=O)Nc2cccc(S(=O)(=O)NC3=NCCC3)c2)c1C | 0.68 | -2.1 | . | 13 | . | 3.1
i | CC(=O)Nc1cccc(NC(=O)CSc2nc(=O)n(CCN3CCOCC3)c3c2CCC3)c1 | 0.65 | -0.3 | 2.1 | -9 | 97* | 4.1
i | CCN(CC)S(=O)(=O)c1cccc(NC(=O)COC(=O)CCc2nc3ccccc3s2)c1 | 0.7 | -3.2 | 6.0 | 16 | -3 | 4.1
i | CNC(=O)N/N=C(\N)c1ccccn1 | . | 1.7 | 1.6 | -3 | 31 | .
i | CCC(Oc1ccc(C)c(C)c1)C(=O)N1CCCN(C)CC1 (stereo unspecified) | 0.7 | -0.1 | -2.3 | 4 | -2 | 1.8
. | O=C(Nn1cnnc1)C1CCCN1S(=O)(=O)c1ccc(F)cc1 (stereo unspecified) | 0.67 | -2.1 | -0.3 | 1 | -7 | 6.2
i | CCOc1ccccc1/C=C(/NC(=O)c1ccccc1)C(=O)N(CC)CC | 0.69 | 1.3 | -4.0 | 0 | 2 | 1.7
i | COc1ccc(CN(Cc2cccn2C)S(=O)(=O)c2ccc(F)cc2)cc1 | . | 5.3 | 0.5 | 13 | . | .
. | NC(=O)c1ccccc1NC(=O)CCCN1C(=O)CCC1=O | 0.81 | 0.0 | -3.0 | -2 | -10 | 3.3
i | Cc1cc(C(F)(F)F)n(-c2ccc(N)cc2)n1 | 0.69 | 1.4 | 0.0 | 6 | -1 | 0.8
i | Cn1ncc(Cl)c1C(=O)N1CCN(S(=O)(=O)c2ccc(F)cc2)CC1 | 0.74 | 3.8 | -9.7 | -2 | -5 | 4.9
i | CCOc1ccc(NC(=O)C2CCCN2C(=O)Oc2ccccc2)cc1 (stereo unspecified) | . | 0.1 | -2.0 | 8 | -5 | .
i | COc1ccc(CC(=O)Nc2c(C(=O)N3CCN(c4ncccn4)CC3)oc3ccccc23)cc1OC | 0.68 | 1.9 | 1.1 | 0 | 0 | 1.4
i | Cc1ccc(S(=O)(=O)N(C)C)cc1NC(=S)N(C)C1CCN(C)CC1 | 0.71 | 0.6 | -0.2 | -3 | -9 | 0.2
i | O=C(NCc1n[nH]c(=S)n1-c1cccc(Cl)c1)c1ccc(S(=O)(=O)N2CCCCC2)cc1 | 0.69 | -4.4 | 9.6 | 2 | 26 | 2.5
i | CCC(CC)c1nnc(NC(=O)CCNC(=O)c2ccccc2Cl)s1 | 0.71 | -2.1 | 2.5 | 3 | -2 | 1.2
i | Cc1cccc(NC(=O)c2cccc(OC(=S)N3CCOCC3)c2)c1C | 0.67 | -3.2 | -14 | 3 | 4 | -1.5
i | Cc1ccc(S(=O)(=O)Nc2cccc(-c3ccc4nnc(C)n4n3)c2)s1 | 0.69 | 0.5 | -4.1 | 0 | -3 | 3.4
. | COc1ccc(CC(NC(C)=O)C(=O)NC2CCN(c3nc(C)cc(C)c3C#N)CC2)c(OC)c1 (stereo unspecified) | 0.71 | -2.6 | 0.9 | -3 | -7 | -39
. | CC(C)n1c(=S)[nH]c2ccccc2c1=O | 0.63 | 4.0 | -2.2 | 7 | 10 | 2.9
i | Cc1cccc(-n2nc3c(c2NC(=O)C2CC2)CS(=O)(=O)C3)c1C | 0.72 | 0.7 | -4.1 | 2 | -12 | -0.6

Other results.
FGF22 binding | smiles | E coli growth | HNF4A DNA FP | LANA-H2B inh | B2AR ag | ALR H2O2 inh | UCH37 inh
. | CN(CC(=O)Nc1ccc(C#N)cc1)Cc1ccc(Cl)cc1Cl | 0.67 | -2.9 | 3.6 | -5 | -3 | 3.2
. | CCCSC1=N/C(=C\c2ccc3c(c2)OCO3)C(=O)S1 | 0.71 | -1.9 | 2.6 | 3 | -4 | 1.3
. | COc1ccc(C(=O)Nc2c(Cl)cc(Cl)cc2C(=O)NCCN2CCOCC2)cc1 | 0.68 | -1.6 | 0.2 | -2 | -11 | 1.4
. | Cc1ccc(Cn2c(=O)c3ccccc3n3c(SCC(=O)N4CCCCC4C)nnc23)cc1 (stereo unspecified) | 0.74 | 1.2 | -4.8 | -4 | . | 5.0
i | Cc1ccc(S(=O)(=O)N2CCOCC2)cc1NC(=O)COc1ccccc1Cc1ccccc1 | 0.74 | 5.5 | 0.4 | -13 | . | 1.9
i | Nc1ccccc1-c1nnc(-c2ccccc2N)n1N | 0.63 | 1.6 | 5.4 | -1 | -1 | 0.0
i | Cc1cc2nc(CO)[nH]c2cc1C | 0.69 | 4.4 | 3.0 | -4 | 6 | 3.6
. | CC(C)C(CO)NC(=O)CC(=O)NC(CO)C(C)C (stereo unspecified) | 0.68 | -1.9 | -5.6 | -5 | 1 | 4.8
i | COC(=O)CNC(=O)C1CCCN1C(=O)CNC(=O)OCc1ccccc1 (stereo unspecified) | 0.68 | 1.0 | 1.8 | -6 | -7 | 2.0
i | C=CCOn1c(-n2nc(C)cc2C)nc2ccccc2c1=O | 0.68 | -2.6 | -2.5 | -4 | -3 | -0.1
i | Cc1cc(NC(=O)CSCC(=O)Nc2nc3c(C)cccc3s2)no1 | 0.69 | 6.2 | -2.8 | 8 | 6 | -3.0
i | Cc1ccc(S(=O)(=O)N2CC(O)C[C@H]2C(=O)OCC(=O)Nc2ccc(N3CCOCC3)cc2)cc1C (stereo partly specified) | 0.63 | -2.6 | . | -4 | . | 3.3
i | CC(=O)c1sc(NC(=O)c2cccc(C)c2)nc1C | 0.6 | 1.4 | -3.7 | -9 | -2 | 5.4
i | CCOC(CNC(=O)c1cccn2c(=O)c3c(C)c(C)sc3nc12)OCC | 0.67 | -0.3 | 3.0 | -4 | -2 | 0.8
i | COc1ccccc1N1CCN(c2nccc(C)n2)CC1 | 0.69 | -1.2 | 2.9 | 6 | 62 | 2.2
. | COc1ccc2c(c1)C(C1=C(O)CC(C)(C)CC1=O)C1=C(CC(C)(C)CC1=O)O2 (stereo unspecified) | 0.68 | -0.5 | 4.3 | 1 | 2 | 0.7
. | NCCc1c(-c2ccccc2)n(-c2ccccc2)c2ccccc12 | 0.63 | 1.4 | . | 31 | . | 2.9
i | O=S(=O)(N/N=C/c1ccc(F)cc1)c1ccccc1 | . | 3.3 | 1.2 | -2 | 11 | .
i | Cc1cc(C(=O)N/N=C/c2ccco2)c2ccccc2n1 | . | 0.4 | -0.1 | -2 | -5 | .
i | O=C(NCCC1CCCCN1S(=O)(=O)c1ccccc1)C(=O)NC1CC1 (stereo unspecified) | . | -4.5 | -3.5 | -5 | -1 | .
i | C=Cc1cccc(NC(=O)c2ccc(NC(=O)c3ccco3)cc2)c1 | 0.67 | 2.0 | -3.4 | 16 | 3 | 2.3
. | COC(=O)C1=C(CSc2nncn2C)NC(=O)NC1c1ccc(F)cc1 (stereo unspecified) | 0.68 | 1.3 | 4.2 | 3 | -5 | -1.4
. | COc1cc(CNC2CCCCCC2)cc(OC)c1 | 0.69 | 0.1 | 6.6 | 5 | -1 | 3.8
i | COC(=O)c1cc(C(=O)N2CCN(c3ccccc3OC)CC2)cc([N+](=O)[O-])c1 | 0.72 | -0.9 | 0.9 | 2 | -14 | 4.4
i | COCCNC(=O)c1ccc(S(=O)(=O)c2ccc(Cl)cc2)c(NC(C)=O)c1 | 0.7 | -3.5 | -1.8 | -5 | . | 1.3
. | Cc1ccc(C(=O)COC(=O)CSc2cccc3cccnc23)c(C)c1 | 0.72 | -2.6 | 17* | 1 | -7 | -4.3
